# VACV Venus inh – inhibitors of vaccinia virus (Venus reporter). 330,000 tested, 0.46% active. Vaccinia virus Venus reporter expression, fluorescence. Potency, µM (highest dose often 36.5 µM), for the others: top-dose activity change, negative = inhibition, hits mostly inhibitors; active means well fitted inhibition curve with a large enough effect; inconclusive means small, poorly fitted or top-dose-only effect; inactive means no such curve, though single readings can be large or run the other way; tested in A549 cells; also: nearly all actives have a fitted effect of over 30% in size; inactives centre near -10
# VACV mCherry inh – inhibitors of vaccinia virus infection (mCherry reporter signal). Vaccinia virus mCherry reporter infection, fluorescence; about a quarter of the inactives have no number. Potency, µM (series often up to 36.5 µM), for inactives: top-dose activity change, negative = inhibition, actives largely listed as inhibitors. 310,000 tested, 0.63% active. AID 720579; active = well fitted inhibition curve with a large enough effect; inconclusive = small, poorly fitted or top-dose-only effect; inactive = no such curve, though single readings can be large or run the other way; tested in A549 cells; also: nearly all actives have a fitted effect of over 35% in size; inactives centre near -10
# Numbers without * were called inactive; i = inactive; ? = inconclusive; . = no result given; & = joins results of further samples. % is scaled to controls: 0 for no effect and ±100 for the full control effect; potency is read from the fitted curve at half-maximal effect.
no.	smiles	VACV Venus inh	VACV mCherry inh
1	CCOC(=O)C1=NNC2(c3ccccc3)C(=O)N(c3cccc(Br)c3)C(=O)C12 (centres undefined)	-5%	-14%
2	CC(C)(C)NC(=O)CCN(/N=C/c1ccccc1O)C1=NS(=O)(=O)c2ccccc21	-8%	-22%
3	COc1ccc(-c2coc3c(C(=O)NCC(C)C)cccc23)c(C)c1	-12%	i
4	Cc1cccc(N2CCN(C(=O)c3csc4ccccc34)CC2C)c1 (centres undefined)	-9%	-23%
5	COc1ccc(C(=O)Nc2nc3ccccc3s2)cc1OC	-16%	i
6	COc1cc(C(=O)N2CCCC(c3cc(C(=O)NCc4ccc(F)cc4)no3)C2)cc(OC)c1C (centres undefined)	-12%	-11%
7	Cc1ccc(S(=O)(=O)NCc2cccc([N+](=O)[O-])c2)cc1	-10%	-5%
8	CN(C)CCSc1nc(-c2ccccc2)nc2c1CCCC2	-9%	-10%
9	O=C(CNCc1ccco1)Nc1cc(S(=O)(=O)N2CCOCC2)ccc1N1CCOCC1	5%	-1%
10	COc1ccc(-c2cc(C(F)(F)F)nc(S(=O)(=O)CCCC(=O)Nc3cccc(O)c3)n2)cc1OC	-16%&-26%	?
11	CCOC(=O)C1CCCN(S(=O)(=O)c2ccc(OC)c3ccccc23)C1 (centres undefined)	-16%	-20%
12	Cc1nc(NCc2ccco2)c2c3c(sc2n1)CCC3	-5%	.
13	CCCCn1c(=O)[nH]c(=O)c2c1nc(-c1ccc(-c3ccccc3Br)o1)n2CC	-26%	.
14	CCN(CC)S(=O)(=O)c1ccc(NC(=O)CCc2c(C)nc3cc(-c4ccc(Cl)cc4)nn3c2C)cc1	-28%	-2%
15	O=C(CCl)NCCCCCCCCCNC(=O)CCl	5.6µM*	14µM*
16	Cc1ccc(OCCCC(=O)N(C)CC(=O)Nc2ccccc2Cl)cc1	-22%	-28%
17	Cn1c(-c2ccccc2)cc(=O)cc1-c1ccccc1	-6%	3%
18	Cc1ccc(S(=O)(=O)N2CC(O)CC2C(=O)O)cc1 (centres undefined)	-5%	-11%
19	COc1cccc(CNC(=O)CCCn2c(=O)c3cccn3c3cccnc32)c1OC	-6%	i
20	Brc1ccc(OCc2nnc(SCC3CCCCC3)o2)cc1	-10%	-17%
21	CCCN1C2=NCCN2c2cc(C)c(C)cc21	?	.
22	CCCCn1c(N)c(N(CCC(C)C)C(=O)COC(=O)c2ccc3ccccc3c2)c(=O)[nH]c1=O	-10%	-14%
23	Cc1sccc1/C=N/NC(=O)c1cccc2ccccc12	-12%	-23%
24	Nn1cnnc1SC1CCCCC1NS(=O)(=O)c1ccccc1 (centres undefined)	-22%	.
25	COc1ccccc1-c1cccc([C@@H]2C[C@H]3[C@H](CON3C)CN2C(=O)C(C)(C)C)c1	-18%	-13%

# 4 of the compounds above, field by field.
[8] CN(C)CCSc1nc(-c2ccccc2)nc2c1CCCC2
  VACV Venus inh: -9% | VACV mCherry inh: -10%
[9] O=C(CNCc1ccco1)Nc1cc(S(=O)(=O)N2CCOCC2)ccc1N1CCOCC1
  VACV Venus inh: 5% | VACV mCherry inh: -1%
[10] COc1ccc(-c2cc(C(F)(F)F)nc(S(=O)(=O)CCCC(=O)Nc3cccc(O)c3)n2)cc1OC
  VACV Venus inh: -16%&-26% | VACV mCherry inh: ?
[11] CCOC(=O)C1CCCN(S(=O)(=O)c2ccc(OC)c3ccccc23)C1 (centres undefined)
  VACV Venus inh: -16% | VACV mCherry inh: -20%

# (next part)
no.	smiles	VACV Venus inh	VACV mCherry inh
26	Cc1c(=O)n(OCc2ccc(Cl)cc2)c2ccccc2[n+]1[O-]	22%	-1%
27	COc1ccc(CN2CCC3(CC2)c2ccccc2[C@@H](NC(=O)c2ccccc2)[C@@H]3O)cc1O	-10%	i
28	COc1cc2ncnc(NCc3ccccc3)c2cc1OC	-11%	-22%
29	CCN1C(=O)[C@H]2[C@@H](c3ccc(SC4CCCCC4)c(OC)c3)N3CCCC[C@@]3(C(=O)OC)[C@H]2C1=O	?	-15%
30	S=c1nc(-c2ccccc2)[nH]c2ccc(Br)cc12	-14%	-5%
31	CC1(C(=O)NS(=O)(=O)c2cccc(Cl)c2)CCN1C(=O)C1(c2ccc(Cl)cc2)CCC1 (centres undefined)	2%	-4%
32	Cc1noc(/C=C/N(C)C)c1S(=O)(=O)N1CCN(c2ccccc2)CC1	-11%	-7%
33	C(=C\c1ccc2ccccc2n1)/c1ccccc1	?	5µM*
34	C=C(C)C(=O)Nc1cccc(C2=NOC3(C2)C[C@H](C(N)=O)N(C(=O)COc2ccc(Cl)cc2)C3)c1 (some centres undefined)	-7%	-10%
35	COc1cccc(-c2cn(C[C@H]3CC[C@@H]([C@@H]4CC[C@H](Cn5cc(-c6cccc(OC)c6)nn5)O4)O3)nn2)c1	-7%	18%
36	Cc1cc(O)c2c(C)c(CC(=O)N3C[C@H]4C[C@@H](C3)c3cccc(=O)n3C4)c(=O)oc2c1	-9%	-6%
37	CNc1cncc(-c2ccccc2NC(C)=O)n1	-1%	i
38	COc1ccc2cc(OCC(=O)NNC(=O)Nc3ccc(F)cc3)ccc2c1	-8%	-10%
39	Cc1cccc(Cn2c(C(C)O)nc3ccccc32)c1 (centres undefined)	-11%	-7%
40	Cc1nnc(SCC(=O)Nc2ccc3c(c2)OCO3)n(N)c1=O	-10%	i
41	Nc1ncc2c(n1)-c1cc(Cl)ccc1SC2	-18%	i
42	CCn1c(-c2cc(-c3ccc(OC(C)C)cc3)nc3ccccc23)n[nH]c1=S	-9%	i
43	CCOC(=O)C1=CCN(S(=O)(=O)c2ccccc2Cl)C1c1cccc(Br)c1 (centres undefined)	-1%	14%
44	Cc1cccc(CN2CCSc3sccc3C2=O)c1	-4%	-2%
45	COc1cc(/C=C\C(=O)NCc2ccc3c(c2)cc(C)n3C)cc(OC)c1OC	-3%	i
46	CN(Cc1ccccc1)C(=O)CN1C(=O)COc2ccc(S(=O)(=O)N3CCCC3)cc21	-5%	-17%
47	OC[C@@H]1CN(Cc2cccnc2)C[C@H](n2cnc3c(N4CCOCC4)ncnc32)O1	-6%	-10%
48	COc1ccc(CN2CCN(S(=O)(=O)c3ccccc3)CC2)c(OC)c1	4%	-11%
49	Cc1ccccc1OC(=O)n1c(=S)oc2cc(Cl)ccc21	-14%	-14%
50	CCCc1cc(=O)n2[nH]c(-c3ccc(Br)cc3)cc2n1	-24%	.

# Single records (already shown):
# Profile of CC1(C(=O)NS(=O)(=O)c2cccc(Cl)c2)CCN1C(=O)C1(c2ccc(Cl)cc2)CCC1 (centres undefined) → VACV Venus inh: 2%; VACV mCherry inh: -4%
# Profile of COc1ccc(CN2CCC3(CC2)c2ccccc2[C@@H](NC(=O)c2ccccc2)[C@@H]3O)cc1O → VACV Venus inh: -10%; VACV mCherry inh: i

# (continued)
no.	smiles	VACV Venus inh	VACV mCherry inh
51	CCCCOc1cccc(OCC(=O)Nc2nc3ccccc3[nH]2)c1	-8%	1%
52	CCOC(=O)N1CCN(Cc2nc(N)nc(Nc3ccc(C)cc3)n2)CC1	-21%	-5%
53	Cc1ccc(C)c(S(=O)(=O)NCC(=O)N2CCCC2)c1	-2%	-14%
54	O=C(CCN1C(=O)c2ccc([N+](=O)[O-])cc2C1=O)Nc1ccccc1C(=O)O	-1%	i
55	COC(=O)Nc1ccc(S(=O)(=O)N2CCCC(C(=O)NC3CCCCC3)C2)cc1 (centres undefined)	-17%	i
56	O=C(NCc1ccccn1)c1coc(=O)c(Br)c1	-8%	.
57	Cc1cccc(N2CC(O)(c3cccs3)[N+]3=C2CCCC3)c1C (centres undefined)	-6%	-15%
58	COc1cc(C(=O)NC2CC(C)(C)Cc3c2cnn3-c2ccccc2)cc(OC)c1OC (centres undefined)	-11%	-1%
59	O=C1c2ccccc2C(=O)N1/N=C/c1ccc(O)c(O)c1	-12%	-26%
60	CCOC(=O)/C=C/c1nc(C(=O)OCC)c(C)c(=O)[nH]1	-24%	-3%
61	Cc1ccccc1Nc1c(-c2ccc(Br)cc2O)nc2sccn12	-2%	-2%
62	CCN(CC(=O)Nc1cccc(OC)c1)CC(=O)Nc1ccccc1C	-14%	0%
63	CCN1C(=O)[C@H]2[C@H]3CN=C(SCc4ccccc4)N3[C@@](C)(C(=O)OC)[C@H]2C1=O	15%	?
64	COC(=O)C1=C(C(=O)OC)C(c2ccc(OC)c(OC)c2)c2sc(=O)[nH]c2S1 (centres undefined)	-6%	-2%
65	C[C@@H](OC(=O)c1[nH]cnc1C(=O)N1CCN(C(=O)OC(C)(C)C)CC1)c1ccccc1	-7%	-4%
66	CC(NC(=O)C1CCN(C(=O)Nc2ccccc2)CC1)c1ccccc1 (centres undefined)	-10%	-8%
67	CC(=O)n1ccnc1	-9%	0%
68	C[C@@H]1CN([C@@H](C)CO)S(=O)(=O)c2ccc(Br)cc2O[C@@H]1CN(C)Cc1cccnc1	-11%	-21%
69	O=C(Cn1cc(S(=O)(=O)Cc2ccccc2)c2ccccc21)N1CCOCC1	-9%	-10%
70	Cc1cc(C(=O)CSc2nnc(-c3cccnc3)n2-c2ccccc2F)c(C)n1CC1CCCO1 (centres undefined)	-12%	.
71	Cc1oc2cc3oc(=O)c(CCC(=O)N[C@H](C(=O)O)C(C)C)c(C)c3cc2c1C	-6%	-7%
72	O=C1NC2(CCCCC2)C(=O)N1CCN1C(=O)c2ccccc2C1=O	-5%	i
73	O=C(O)Cc1csc(NC(=O)CSc2cccc(C(=O)O)n2)n1	16%	4%
74	CCOCC(=O)Nc1cc(-c2cn3cccnc3n2)ccc1C	-13%	-2%
75	CCn1c(CCc2nc3ccccc3[nH]2)n[nH]c1=S	-7%	-13%
76	COc1ccc(C(=O)NN2C(=O)C3CCC(C)(C2=O)C3(C)C)cc1 (centres undefined)	-8%	-22%
77	CCOC(=O)c1cnn(-c2ccccc2)c1-n1cccc1C(=O)C(=O)Nc1ccc(F)cc1	-21%	.
78	CC(=O)Nc1ccc(NC2=C(Cl)C(=O)c3ccccc3C2=O)cc1	?	?
79	COc1ccc(S(=O)(=O)N2CCc3ccccc32)cc1C(=O)NCCc1ccccn1	-12%	-7%
80	COCCSc1ccccc1C(=O)Nc1ccncc1	-6%	-7%
81	O=C(O)/C=C/c1ccc2ccccc2n1	-16%	?
82	CS(=O)(=O)Nc1ccccc1C(=O)NCCSc1ccc(Cl)cc1	-25%	-3%
83	O=C(Nc1nc(-c2cccs2)cs1)C1=COCCO1	-20%	-21%
84	Cc1ccc(-c2noc(C3CC(=O)N(c4ccc5c(c4)OCCO5)C3)n2)cc1 (centres undefined)	0%	-5%
85	Cc1ccc(NC(=S)N(CCCN2CCOCC2)Cc2cccnc2)cc1C	11%	7%
86	O=C(NCCc1ccc2c(c1)OCCO2)c1cc(S(=O)(=O)N2CCCC2)ccc1Br	-12%	-21%
87	COc1cc(C(=O)C(=O)N2CCN(c3ccccc3)CC2)cc(OC)c1OC	-9%	-28%
88	CCOc1ccc(S(=O)(=O)N2CCCC(C(=O)NCc3cccnc3)C2)cc1C (centres undefined)	-19%	-12%
89	Cc1ccc(-n2c(O)cnc2Nc2nc(C)cc(C)n2)cc1	0%	-9%
90	CCN(C(=O)Cn1nnc(-c2ccccc2)n1)C1CCS(=O)(=O)C1 (centres undefined)	1%	-13%
91	COc1ccc(/C=C/C(=O)OCC(=O)NC2CCCCCC2)cc1	-8%	i
92	N#Cc1ccsc1NC(=O)c1cccc([N+](=O)[O-])c1	-9%	-15%
93	CCN1C(=O)c2cccc3c(S(=O)(=O)N(C(=O)c4ccncc4)c4ccc(OC)cc4)ccc1c23	-22%	i
94	O=C(/C=C/c1ccc(Cl)c([N+](=O)[O-])c1)Nc1ccc(NC(=O)c2ccco2)cc1	3%	-13%
95	O=S(=O)(N[C@H](CO)c1ccccc1)c1ccc(Br)cc1F	-5%	i
96	Nc1nccc(N2CCCCC2)n1	-10%	i
97	Brc1cc2ccccc2[n+](Cc2ccccc2)c1	-18%	-18%
98	Cc1cccc(NC(=O)CN(C)S(=O)(=O)c2cccc3cccnc23)c1	9%	9%
99	CC(=O)c1ccc(N2CCN(C(=O)c3n[nH]c4ccccc34)CC2)cc1	-21%	-3%
100	O=C(c1cc2nc(-c3cccs3)cc(C(F)(F)Cl)n2n1)N1CCCc2ccccc21	-13%	i

# Continued, overlapping the part above by 2 compounds.
no.	smiles	VACV Venus inh	VACV mCherry inh
99	CC(=O)c1ccc(N2CCN(C(=O)c3n[nH]c4ccccc34)CC2)cc1	-21%	-3%
100	O=C(c1cc2nc(-c3cccs3)cc(C(F)(F)Cl)n2n1)N1CCCc2ccccc21	-13%	i
101	O=C1N/C(=C/c2ccc(Br)cc2)C(O)=C1C=NCc1ccccc1	-25%	-25%
102	COc1cc(Cl)c(C)cc1NS(=O)(=O)c1c(C)nc2sccn2c1=O	-18%	-25%
103	Cc1cn(CC(C)C)c(=O)n(-c2ccccc2)c1=O	-10%	i
104	Cc1noc(C)c1C(=O)OCC(=O)C12CC3CC(CC(C3)C1)C2	-2%	i
105	Fc1ccccc1OCc1nc(-c2ccc(-n3cccc3)cc2)no1	-21%	-14%
106	COc1cc(OC)c(NC(=O)CSc2cc(=O)n(C)c3ccc(Cl)cc23)cc1Cl	?	?
107	Cc1ccc(SC[C@H](Cc2ccccc2)N2CC[C@@H](NC(=O)OCc3ccccc3)CCC2=O)cc1	-17%	-22%
108	COc1ccc(NC(=S)N2CCCC2)c(OC)c1	-7%	i
109	COc1cc(C(=O)NCc2nnc(SCC(=O)N3CCC(C)CC3)o2)cc(OC)c1OC	-11%	-17%
110	C[C@@H](Cc1ccccc1)Nc1ncnc2c1ncn2[C@@H]1O[C@H](CO)[C@@H](O)[C@H]1O	-8%	-1%
111	CC(=O)c1ccc(C(=O)N2CCCC(C(=O)c3cc(F)ccc3F)C2)s1 (centres undefined)	-12%	i

# From PubChem BioAssay
